# Screening results as filed in PubChem.
# FGF22 binding: FGF22 (human) thermal shift binding; recombinant FGF22 thermal shift, SYPRO orange fluorescence; percent of sucrose octasulfate shift, DMSO zero; calls only at 9.99 µM; 340,000 compounds, 1.5% hits; AID 651658;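 active = melting point raised past a set limit in the mean and every replicate; three in four hits are not shown here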
# Target sequence (Q9HCT0 whole entry, looked up): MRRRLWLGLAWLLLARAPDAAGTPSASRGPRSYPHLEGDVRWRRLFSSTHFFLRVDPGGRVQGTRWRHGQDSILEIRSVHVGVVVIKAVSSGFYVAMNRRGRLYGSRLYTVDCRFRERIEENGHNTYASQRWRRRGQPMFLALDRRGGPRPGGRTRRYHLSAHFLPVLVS
# HNF4A DNA FP: change in binding of human HNF4 alpha to DNA. P41235. HNF4a-FITC DNA binding, fluorescence polarization, 1 h. activity change, % at 10 µM. 360,000 compounds, 0.3% hits; in the data active = activity change above about 30%, passing the limit was not always enough;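 note: controls were the assay level and a saturating level of protein; the project sought stronger binding though the title names inhibitors; some compounds called inactive have numbers as strong as hits; positive values seem to mean higher polarization but the record does not say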
# Target sequence (P41235 whole entry, looked up): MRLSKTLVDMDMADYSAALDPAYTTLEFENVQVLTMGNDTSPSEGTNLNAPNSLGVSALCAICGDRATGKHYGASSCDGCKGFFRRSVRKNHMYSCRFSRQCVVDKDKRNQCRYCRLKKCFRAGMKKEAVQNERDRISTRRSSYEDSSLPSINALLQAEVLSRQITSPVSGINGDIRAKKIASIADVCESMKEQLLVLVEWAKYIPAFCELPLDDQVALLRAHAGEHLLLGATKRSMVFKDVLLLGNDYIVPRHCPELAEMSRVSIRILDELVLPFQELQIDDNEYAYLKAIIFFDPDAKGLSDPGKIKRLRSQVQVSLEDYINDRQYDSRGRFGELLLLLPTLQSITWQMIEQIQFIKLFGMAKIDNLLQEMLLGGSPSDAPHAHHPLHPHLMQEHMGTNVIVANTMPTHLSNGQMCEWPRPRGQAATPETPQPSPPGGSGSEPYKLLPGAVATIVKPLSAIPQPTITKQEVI
# ALR inh: human ALR oxidase inhibition via reduced H2O2; inhibition, % (no concentration beside the values); purified ALR, DTT oxidation, H2O2 HRP-luminol luminescence; 290,000 compounds, 3.8% hits; AID 485317; P55789;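 active = mean and each replicate at 75% or more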;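 note: stock transfer was 7.5 nL into about 7.5 µL; 0% = neutral wells and 100% = wells with inactivated enzyme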
# Target sequence (P55789 whole entry, looked up): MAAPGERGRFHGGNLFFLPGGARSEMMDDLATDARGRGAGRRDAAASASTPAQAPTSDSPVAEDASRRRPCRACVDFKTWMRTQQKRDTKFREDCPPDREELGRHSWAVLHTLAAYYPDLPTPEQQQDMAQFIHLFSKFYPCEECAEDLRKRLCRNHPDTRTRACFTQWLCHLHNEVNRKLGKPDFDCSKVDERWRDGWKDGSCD
# UCH37 DUB inh: human UCH37 deubiquitinating enzyme inhibition | Q9Y5K5 | inhibition, % (test concentration not listed) | 330,000 compounds, 0.33% hits | purified proteasome/UCH37, Ub-AMC cleavage fluorescence;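 active = mean of two replicates above 20%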;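 note: 0% = compound-free wells with enzyme and 100% = wells lacking proteasome; stock transfer was 100 nL into about 20 µL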
#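 Test system – human UCH37 enzyme supplied as purified proteasome complex · Incubation – 30 min preincubation with enzyme, 25 min cleavage at room temperature · Detection – AMC fluorescence from Ub-AMC cleavage, excitation 355 nm, emission 460 nm · Benchmarks – no-proteasome wells (full inhibition) and compound-free wells (no inhibition)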
# B2AR ag: activates human beta-2 adrenergic receptor causing internalization. P07550. Am2.2-beta2AR cells, FAP receptor internalization, flow cytometry; reference of the scale not given here. response, % (concentration not given with the values). 340,000 compounds, 0.43% hits;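 active = response above a set limit, near 3 SD of response in nonfluorescent compounds, cut at about 42% in these data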;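 note: stock transfer was 100 nL into about 11 µL; a reference agonist was the positive control; negative values mostly stem from fluorescent compounds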
# Ecoli growth: inhibitors of Escherichia coli growth | OD600 absorbance (concentration not given with the values) | OD600, 23 h; stronger effect = lower value | 330,000 compounds, 0.21% hits;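 active = OD600 absorbance below the run mean of sample wells minus 3.6 SD, in any replicate, cut at about 0.56 in these data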;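 note: stock transfer was 300 nL into about 60 µL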
# LANA-H2A inh: blocks KSHV LANA binding to histone H2A/H2B; Q9QR71; cell-free LANA-H2A/H2B peptide, fluorescence polarization; inhibition, % (test concentration not listed); 320,000 compounds, 0.6% hits; in the data active = inhibition mostly above about 10%, no sharp cut-off; inactive = mostly below about 6.7%;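 note: stock transfer was 7.5 nL into about 10 µL; 0% = median of vehicle wells and 100% = median of positive control wells; one replicate is shown; the record names a cut of 25% in any replicate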
# * = called active by the depositor; i = inactive; / = not tested or not shown. These rows are one share of the data; rates above refer to the full screens.
SMILES,FGF22 binding,HNF4A DNA FP,ALR inh,UCH37 DUB inh,B2AR ag,Ecoli growth,LANA-H2A inh
Cc1cnc(C(=O)OCC(=O)c2ccc(F)cc2)cn1,i,-2.0,2,-1.7,-3,0.74,0.5
Cc1ccc(C2(c3ccccc3)NC(=O)N(CC(=O)NCc3ccccc3)C2=O)cc1C (centres undefined),i,-0.7,/,5.9,40,0.71,/
CCN1CCN(C(=O)c2cc3nc(-c4ccccc4)cc(C(F)(F)F)n3n2)CC1,/,-0.7,-5,-7.4,-21,0.67,1.3
O=C(c1nn2c(C(F)(F)F)cc(-c3ccccc3)nc2c1Cl)N1CCOCC1,/,-0.7,-2,3.0,-13,0.7,2.3
COCCn1c(=NC(=O)CSCC(=O)NC2CCCCC2)sc2cc(OC)ccc21,/,1.8,-15,/,-3,/,4.8
O=C(CO/N=C/c1ccc(Cl)cc1Cl)NNC(=O)c1ccc(Cl)cc1Cl,i,-1.5,-6,/,3,/,-1.3
COc1ccc(C(=O)c2ccc(N3CCN(C4CC(=O)NC4=O)CC3)cc2)cc1F (centres undefined),/,4.1,-3,7.3,-2,0.76,-0.4
COc1ccccc1NC(=O)Cn1ccn(-c2cccc3ccccc23)c(=O)c1=O,i,1.0,-65,4.4,-3,0.68,-3.4
CCCC(C(=O)Nc1ccc2c(C)cc(=O)oc2c1)c1ccccc1 (centres undefined),i,-2.4,0,-80,11,0.71,3.3
CCN(CC)C(=O)Cn1cc(C(=O)C(=O)NCc2cccnc2)c2ccccc21,i,-3.3,-3,7.1,9,0.72,5.6
COc1ccc(C2(NC(C)=O)CCN(C(=O)CCC(=O)O)CC2)cc1,/,-3.2,-15,4.1,2,0.73,-2.8
COc1cccc(CNC(=O)C2Cc3ccccc3CN2C(C)=O)c1 (centres undefined),i,-1.4,/,2.9,4,0.65,3.6
COc1cccc(CNC(=O)CSC(=S)N2CCCC2)c1,i,-1.7,-2,3.8,-9,0.64,3.2
CSc1nsc(SC)c1C(=O)NC(=O)Nc1cccnc1,i,-0.1,-6,2.1,5,0.67,-7.3
Cc1nnc(SCC(=O)NC(C)(C)C)n1NCc1ccc(N(C)C)cc1,i,-0.2,81*,/,2,/,6.9
Cc1cccc(C(=O)OC(C)C(=O)Nc2ccc(S(=O)(=O)N3CCCC3)cc2)c1O (centres undefined),i,-2.1,-3,-1.8,13,0.69,3.5
O=C(NCC1CCCO1)c1ccc(F)c2ccccc12 (centres undefined),i,5.1,1,/,-1,/,11
O=C(NCc1ccc2c(c1)OCO2)c1ccccn1,/,-1.4,-1,0.1,2,0.66,-0.3
Nc1nc(N2CCOCC2)nc(N(c2ccccc2)c2ccccc2)n1,i,1.7,-20,4.7,-1,0.78,0.4
COC(=O)CSc1ncc(OC)c(OC)n1,/,-2.4,34,5.4,-2,0.7,-3.8
O=C(NC1CCCC1)C(c1ccncc1)N(C(=O)Cc1cccs1)c1cccc(F)c1 (centres undefined),i,2.0,-6,1.9,-3,0.68,-2.1
CN(C)c1ccc(/C=C/c2ccncc2)cc1,/,16,/,-8.0,-16,0.7,/
CCS(CC)=NS(=O)(=O)c1ccc(NC(C)=O)cc1,/,5.0,/,-0.3,5,0.69,/
CCc1ccc2[nH]c(=O)c(C(c3nnnn3CCOC)N3CCN(c4ccccc4F)CC3)cc2c1 (centres undefined),/,-1.2,-9,-1.2,-8,0.78,-8.0

# Record cards (already shown). Screens in order: FGF22 binding | HNF4A DNA FP | ALR inh | UCH37 DUB inh | B2AR ag | Ecoli growth | LANA-H2A inh
# Record of COc1cccc(CNC(=O)CSC(=S)N2CCCC2)c1 = i | -1.7 | -2 | 3.8 | -9 | 0.64 | 3.2
# Record of COC(=O)CSc1ncc(OC)c(OC)n1 = / | -2.4 | 34 | 5.4 | -2 | 0.7 | -3.8
# Record of CN(C)c1ccc(/C=C/c2ccncc2)cc1 = / | 16 | / | -8.0 | -16 | 0.7 | /
# Record of CCc1ccc2[nH]c(=O)c(C(c3nnnn3CCOC)N3CCN(c4ccccc4F)CC3)cc2c1 (centres undefined) = / | -1.2 | -9 | -1.2 | -8 | 0.78 | -8.0

# Only LANA-H2A inh, for two of the compounds above:
Compound | LANA-H2A inh
O=C(NCC1CCCO1)c1ccc(F)c2ccccc12 (centres undefined) | 11
O=C(NCc1ccc2c(c1)OCO2)c1ccccn1 | -0.3

# Carrying on:
SMILES,FGF22 binding,HNF4A DNA FP,ALR inh,UCH37 DUB inh,B2AR ag,Ecoli growth,LANA-H2A inh
c1cncc(CSc2ccc(-c3cccnc3)nn2)c1,i,-0.7,-8,3.7,-13,0.65,2.2
COc1ccccc1CN1CC(C(=O)N(C)CCOc2ccccc2)CCC1=O (centres undefined),i,-0.1,-1,0.1,-10,0.66,1.1
O=S(=O)(c1ccc(S(=O)(=O)N2CCC3(CC2)OCCO3)cc1)N1CCCC1,i,-1.4,/,4.2,0,0.68,2.2
COc1ccc(C(=O)n2cnc3ccccc32)cc1[N+](=O)[O-],i,-0.5,-3,4.7,-4,0.67,2.1
CCn1nc(C(=O)NNC(=O)COc2ccccc2C)c2ccccc2c1=O,i,7.0,-4,-0.8,-4,0.66,-2.6
NC(=O)c1cccc(CS(=O)(=O)c2ccc(Cl)cc2)c1,i,-2.6,-3,0.9,-2,0.66,-5.8
CN1C(C(=O)NCc2ccco2)CC2Cn3c(nc4cc5ccccc5cc43)C21 (centres undefined),i,-0.8,/,1.6,0,0.7,0.7
Cc1ccc(NC(=O)CN(C)C(=O)c2ccc(NS(=O)(=O)c3cccc([N+](=O)[O-])c3)cc2)cc1,i,3.9,-64,/,8,/,-0.7
COc1ccc(NC(=O)CSc2nc(SC)ns2)cc1,i,-5.6,-27,2.2,13,0.65,0.6
COc1ccccc1C(=O)O/N=C(/c1ccncc1)c1ccc([N+](=O)[O-])cc1,i,3.0,-7,/,-6,/,-7.0
COc1ccccc1NC(=O)c1cccc(S(=O)(=O)N2CCOCC2)c1,/,-1.6,1,0.8,4,0.76,1.5
O=C(O)c1cc(-c2cccs2)nn1-c1cccc(Cl)c1,i,-3.2,-2,2.9,2,0.67,-1.5
CCN1C[C@@H]2[C@@H]3C(=O)N(Cc4ccccc4)C(=O)[C@@H]3[C@](Cc3ccccc3)(C1=O)N2C(=O)c1ccc(Cl)cc1,i,0.0,/,1.6,3,/,/
COCCn1nnnc1SCC(=O)N1CCCCC1,/,-1.0,-15,4.9,-3,0.77,1.0
CC(=O)N1CCN(c2ccc(Nc3ncnc4c3oc3ccccc34)cc2)CC1,/,-8.7,99*,3.7,8,0.69,3.6
C/C(=N/NC(=O)C1CC1(c1ccccc1)c1ccccc1)c1cccs1 (centres undefined),i,0.3,4,/,-5,/,1.4
COc1ccc(CCNc2nc3ccccc3n3cnnc23)cc1OC,i,1.9,/,-0.7,-16,0.73,/
CCCCN(CC)CCNC(=S)Nc1ccc2nc(N3CCN(C)CC3)cc(C)c2c1,i,1.8,-2,/,7,/,5.9
COc1ccc(-c2csc(NC(=S)NC(=O)c3ccc(S(=O)(=O)N(C)C)cc3)n2)cc1OC,i,1.6,-4,3.7,5,0.7,-0.9
O=C(Nc1ccc2[nH]ncc2c1)c1cccc(F)c1,i,1.1,-9,1.1,0,0.65,-13
C=CCn1c(-c2ccc(N)cc2)nc2ccccc21,i,3.5,95*,-44,-7,0.73,4.2
CCOC(=O)c1cnc(SCc2cccc3ccccc23)nc1N,/,1.0,41,1.8,-5,0.71,5.2
Cc1nnc(NC(=O)c2ccc(N3CCCC3=O)cc2)s1,i,-1.9,/,0.8,1,0.68,/
CC(C)Oc1cccc(C(=O)C2CCCN(C(=O)c3cncs3)C2)c1 (centres undefined),i,1.5,0,-1.1,-1,0.64,0.0
COc1ccc(C2CCN(CC(=O)N(C)C)CC2O)cc1 (centres undefined),i,2.0,-9,3.8,0,0.67,-1.0
COc1cccc2cc(-c3nnc(SCC(=O)NCCc4ccccc4)n3C)oc12,/,2.2,-3,0.9,5,0.7,0.8
O=C(Nc1ccc(F)cc1)C1COc2ccccc2O1 (centres undefined),i,-1.0,-6,1.1,3,0.7,-3.5
CC(C)(C)c1nn2cnnc2n(/N=C/c2ccc(O)cc2)c1=O,/,-1.3,5,/,-12,/,3.7
NC(=O)c1c(/N=C/c2cccs2)sc2c1CCCC2,i,12,-36,/,-7,/,6.1
CCOC(=O)c1c(C)oc2c1c(C(c1cccnc1)N1CCOCC1)c(O)c1ccccc12 (centres undefined),/,-2.9,-3,3.2,14,0.72,-5.6
Cc1nc(NC(=O)COC(=O)C2CC2C)c(Cl)cc1Cl (centres undefined),i,-0.5,-2,-2.9,-4,0.68,-2.8
CCOc1cc(C2c3c(-c4ccccc4)n[nH]c3C(=O)N2c2ccc(C(=O)O)cc2)ccc1O (centres undefined),i,-5.1,29,3.7,-5,0.69,-4.5
O=C(COC(=O)c1ccc2ncsc2c1)Nc1ccccc1Br,i,2.2,-3,2.1,7,0.68,3.7
Cc1c(NC(=O)c2c(NC(=O)CNC3CC3)sc3c2CCCC3)c(=O)n(-c2ccccc2)n1C,/,-2.4,12,2.1,-6,0.62,0.1
Cc1ccc(S(=O)(=O)Cn2nnnc2C(CC(C)C)N2CCN(C)CC2)cc1 (centres undefined),i,2.1,0,5.3,0,0.64,-3.4
O=C(CN1CCOCC1)NCc1ccc(F)cc1,i,0.4,3,5.9,-2,0.68,-2.2
CC(C)[C@@H](C(=O)OCC(=O)c1ccc2c(c1)NC(=O)CO2)N1C(=O)c2ccccc2C1=O,i,3.4,/,3.3,1,0.7,/
CN1C[C@@H]2[C@@H]3C(=O)N(C)C(=O)[C@@H]3[C@](Cc3ccccc3)(C1=O)N2C(=O)c1ccc(Cl)cc1,i,7.8,/,0.7,9,/,/
CC1CCN(Cc2cc(=O)oc3ccc4ccccc4c23)CC1,i,-3.9,/,-13,-5,0.63,4.9
COc1cccc(N(CC(=O)NC2CCCCC2)C(=O)CCC(=O)Nc2nccs2)c1,i,-0.8,-4,1.6,-4,0.68,-2.4
COc1cccc(NC(=O)Cn2c(=O)oc3ccccc32)c1,i,-2.6,-1,1.5,2,0.74,3.5
CN(Cc1cnccn1)C(=O)CC1C(=O)NCCN1CC(c1ccccc1)c1ccccc1 (centres undefined),/,-3.1,-10,-2.9,4,0.68,0.9
Cc1ccc(/C=N/Nc2ccc(F)cc2)s1,i,6.6,-8,/,-4,/,0.2
COc1cc(Cl)cc(CN2CCC(CCC(=O)NC3CC3)CC2)c1OC,i,0.8,-12,1.5,-3,0.67,-3.3
CCOC(=O)c1c(NC(=O)CSc2nnnn2CC)sc(C)c1C,/,-2.1,0,3.1,4,0.67,0.3
COc1ccccc1NS(=O)(=O)c1cc(C(=O)NCC(c2ccco2)N2CCCCC2)ccc1C (centres undefined),i,3.0,0,1.2,-7,0.65,6.6
O=C(c1ccccc1Cc1ccccc1)N1CCN(S(=O)(=O)c2ccccc2)CC1,i,-5.6,-9,2.0,7,0.7,5.9
O=C(c1n[nH]c(=O)c2ccccc12)N1CCN(c2ccccc2)CC1,/,1.4,35,5.3,-14,0.71,-3.9
FC(F)(F)c1ccc(Cl)c(N/N=C/c2ccc(N3CCOCC3)s2)c1,/,23,/,/,3,/,2.0
O=C(Nc1cc(S(=O)(=O)N2CCOCC2)ccc1N1CCOCC1)c1c(F)cccc1Cl,i,-3.0,0,0.1,-3,0.68,-2.8
CCN(c1ccc(NC(=O)COC(=O)c2ccc(S(=O)(=O)N3CCCC3)cc2)cc1)C(C)C,/,3.3,18,2.4,-1,0.73,0.8
COc1ccc(Cc2noc(CN(C)CCN3CCc4ccccc4C3)n2)cc1OC,i,1.8,-4,1.0,-4,0.66,-4.6
Cc1ccc2c(c1)C1CN(C)CCC1N2S(=O)(=O)c1ccccc1F (centres undefined),i,0.4,/,0.2,-2,0.68,-3.1
